High-throughput results: PubChem, several laboratories
RGS16-Gao: regulators of human RGS16-Galphao interaction; 220,000 tested, 0.38% active; bead-based flow cytometry RGS16-Galphao binding, fluorescence; actives lie on both sides; binding response (% of control), % at 10 µM; AID 1441; O15492+P09471;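 active = below 25% or above 175%, edge rows of some plates excepted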;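 note: Galphao activated by GDP with aluminum fluoride before binding; 100% = wells without compound and 0% = beads without RGS; some results beyond the cut were filed as inactive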
INS promoter inh: TRM-6 insulin promoter activity inhibition. TRM-6 cells (human fetal islet line), insulin promoter-eGFP reporter, imaging; reporter expression induced with tamoxifen. inhibition, % at 2 µM. 130,000 tested, 0.9% active;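 active = inhibition above the mean plus 3 SD, with well images judged a real hit on visual review, cut at about 60% in these data, passing the limit was not always enough; inconclusive = inhibition over the cutoff but images rejected on review; inactive = inhibition not above the cutoff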
PKD1 inh: PKD1 (human) kinase inhibition; PKD1 kinase fluorescence polarization assay; inhibition, %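 (about 10 µM by stock and volumes)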; 200,000 tested, 0.056% active;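 active = inhibition of 50% or more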;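 note: controls were vehicle for no effect and a reference inhibitor for full effect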
Target sequence (Q15139 whole entry, looked up): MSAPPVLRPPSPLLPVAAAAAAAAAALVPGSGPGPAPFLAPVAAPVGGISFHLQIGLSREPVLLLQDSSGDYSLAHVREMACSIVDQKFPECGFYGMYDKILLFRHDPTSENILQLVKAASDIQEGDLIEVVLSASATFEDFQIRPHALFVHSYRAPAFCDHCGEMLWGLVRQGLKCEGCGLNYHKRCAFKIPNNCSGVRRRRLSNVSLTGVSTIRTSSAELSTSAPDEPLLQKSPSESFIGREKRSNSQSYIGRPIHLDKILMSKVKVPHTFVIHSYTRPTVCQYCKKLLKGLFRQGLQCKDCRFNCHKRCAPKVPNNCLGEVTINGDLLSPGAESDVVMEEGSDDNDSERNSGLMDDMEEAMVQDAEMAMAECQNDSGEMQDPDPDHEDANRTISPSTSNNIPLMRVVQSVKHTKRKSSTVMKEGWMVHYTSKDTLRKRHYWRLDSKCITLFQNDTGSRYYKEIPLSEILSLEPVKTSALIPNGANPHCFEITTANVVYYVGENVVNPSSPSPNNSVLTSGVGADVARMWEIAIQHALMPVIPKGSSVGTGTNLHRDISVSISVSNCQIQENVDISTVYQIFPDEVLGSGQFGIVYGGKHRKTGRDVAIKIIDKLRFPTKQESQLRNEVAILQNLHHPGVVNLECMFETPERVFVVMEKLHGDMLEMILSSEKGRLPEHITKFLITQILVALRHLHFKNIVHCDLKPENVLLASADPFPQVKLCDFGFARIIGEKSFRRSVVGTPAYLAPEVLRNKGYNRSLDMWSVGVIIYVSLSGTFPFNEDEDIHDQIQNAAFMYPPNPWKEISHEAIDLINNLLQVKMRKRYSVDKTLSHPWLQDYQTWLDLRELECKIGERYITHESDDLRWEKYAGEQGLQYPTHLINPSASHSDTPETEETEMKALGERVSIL
GALR2 agonist: agonists of human galanin receptor 2 (GALR2). O43603. GALR2-expressing cells, agonist activation read-out. activation, %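 (tested at 5 µM)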. 140,000 tested, 0.48% active;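 active = above mean plus 3 SD of all compounds, about 5% in these data, not always enough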;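 note: 0% = vehicle buffer wells and 100% = reference agonist at full effect; tested in CHO reporter cells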
HSV augment: HSV replication enhancement; HSV replication augmentation in cells, fold increase; maximum fold increase; 220,000 tested, 0.005% active;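 active = peak rise of 1.5-fold or more in the series; inconclusive = self-fluorescent or not available for retest; tested in PC3 cells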;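 note: first round at 10 µM; read as green reporter fluorescence; hits show the peak of a series up to 25 µM; 1 = signal of infected wells without compound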
INS promoter inh cell count: second read-out of INS promoter inh, no call of its own (marks repeat the call); normalized cell count, %; measured here: cell count, toxicity; reference of the scale not given here;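 cells exposed to compound for 48 h; stained nuclei by imaging scaled within each plate; lower means fewer cells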
HSV augment primary fold: also measured in HSV augment; calls as there; fold increase; compound at 10 µM; measured here: primary screen fold increase 10 uM; tested in PC3 cells;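 GFP signal in the first replicate; 1 = infected wells without compound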
* = called active by the depositor; i = inactive; ? = inconclusive; / = not tested or not shown.

A first look:
SMILES	RGS16-Gao	INS promoter inh	INS promoter inh cell count	PKD1 inh	GALR2 agonist	HSV augment	HSV augment primary fold
COCCNc1nc(-c2cc3ccccc3o2)cs1	99	/	/	4	-0.3	i	0.84
NS(=O)(=O)c1cc2c(cc1Cl)NC(CC1CCCC1)NS2(=O)=O (stereo not given)	93	/	/	/	/	i	0.82

This part in full, from the first entry:
SMILES	RGS16-Gao	INS promoter inh	INS promoter inh cell count	PKD1 inh	GALR2 agonist	HSV augment	HSV augment primary fold
COCCNc1nc(-c2cc3ccccc3o2)cs1	99	/	/	4	-0.3	i	0.84
NS(=O)(=O)c1cc2c(cc1Cl)NC(CC1CCCC1)NS2(=O)=O (stereo not given)	93	/	/	/	/	i	0.82
COc1cc(NC(=S)Nc2ccccn2)cc(OC)c1	108	6	100	4	-1.2	i	0.73
Cc1ccc(Nc2nc(N)nc(CSC(=S)N3CCN(c4ccccc4)CC3)n2)cc1	112	/	/	-4	1.1	i	0.98
CCCCC(=O)NCCc1cc2c(OC)ccc(OC)c2[nH]c1=O	96	55	59	-6	-0.5	/	/
CC(C)=CCc1c(O)ccc(C(=O)Cc2ccccc2)c1O	103	-3	122	-5	-1.1	i	0.84
CCOc1ccc(S(=O)(=O)N2CCN(c3ccc(C)cc3C)CC2)cc1	103	/	/	-16	-1.9	i	0.97
Fc1ccccc1Cn1c2[n+](c3ccc(C(F)(F)F)cc31)CCCCC2	101	/	/	-5	/	i	0.88
CN(C)c1ccc(N=Nc2ccccc2C(=O)OCC(=O)N2CCCCCC2)cc1	98	-49	86	-2	0.4	i	0.71
Cn1cc(S(=O)(=O)NC(c2ccccc2)c2ccccc2)c(=O)n(C)c1=O	102	/	/	/	/	i	0.92
COc1ccc(NC(=O)Cn2nnc(-c3ccccc3NC(=O)c3cccs3)n2)cc1	102	-57	119	8	-0.3	i	0.75
CNCc1ccccc1OCC(=O)Nc1ccccc1	105	-33	91	-1	-2.3	i	0.79
CCOc1ccc(/C=C/C2=CC(C)(C)NC(=S)N2)cc1	88	18	70	-4	/	i	0.92
Cc1ccc2nsnc2c1NC(=O)c1cccnc1Cl	104	-38	129	1	0.0	i	0.99
CC1(C)OC(=O)C(=CNCC(=O)NCC(=O)O)C(=O)O1	103	-14	156	10	-3.6	i	0.88
CC(C)=C(NC(=O)c1ccccc1)C(=O)N/N=C/c1ccc(O)cc1	101	-24	126	0	0.0	i	1
CCOC(=O)C(=O)/C(C#N)=C/Nc1ccc(Cl)cc1	101	-21	99	0	-1.3	i	0.89
CCOC(=O)Cc1csc(NC(=S)NC(=O)C(C)(C)C)n1	102	-26	74	-8	0.3	i	0.99
CCN(CC)C(=O)c1cnn(-c2ccccc2)c1NC(=O)c1ccccc1F	101	-5	96	10	-0.6	i	0.92
COc1ccc(C(=O)Nc2ccc3c(c2)OCCO3)cc1[N+](=O)[O-]	99	/	/	1	/	i	0.96
O=C(COc1ccc(Br)cc1)N1CCN(S(=O)(=O)/C=C/c2ccccc2)CC1	105	/	/	0	0.6	i	1.2
CCOc1ccc(NC(=O)C(CC)NC(=O)c2ccccc2CO)cc1 (stereo not given)	85	/	/	-4	0.3	i	0.97
CCCCCCc1cc2cc(-c3nnc(-c4cccc(OC)c4)o3)c(=O)oc2cc1O	/	-6	140	-3	-3.9	/	/
Cn1ncc(Br)c1C(=O)Nc1ccc(Cl)cn1	103	/	/	-9	-0.4	i	0.84
O=C(Cn1cnc2ccccc2c1=O)c1ccc(Br)cc1	98	/	/	2	/	i	1
Next part:
SMILES	RGS16-Gao	INS promoter inh	INS promoter inh cell count	PKD1 inh	GALR2 agonist	HSV augment	HSV augment primary fold
CCOc1cc(N2CCOCC2)c(OCC)cc1NC(=O)CSc1cccc[n+]1[O-]	97	27	59	-3	0.9	i	0.92
CCn1c(SCC(=O)Nc2nc3ccc(C)cc3s2)nc2c(c1=O)SC(C)C2 (stereo not given)	109	0	119	13	0.8	i	0.85
CCCCCCc1nc2ccccc2c(=O)n1NC(=O)c1c(O)c2cccc3c2n(c1=O)CC3	/	22	101	3	-2.1	/	/
CC(=O)c1c(C)n(C)c2ccc(OC(=O)c3ccco3)cc12	93	-61	85	-5	-1.4	i	0.93
O=S(=O)(NCC1CCCO1)c1cccc(C(F)(F)F)c1 (stereo not given)	100	-42	130	-6	-1.4	i	1.1
Cc1cc(C)cc(NC(=O)NN2C(C)CCCC2C)c1 (stereo not given)	102	/	/	-7	/	i	0.92
COCCNC(=O)COC(=O)/C=C/c1cnc2ccccc2n1	100	-9	86	-3	-1.7	i	1.1
CCOCCn1c(CN2CCN(c3ccccc3)CC2)nc2c1c(=O)n(C)c(=O)n2C	/	-204	55	0	-1.0	i	0.96
N#CCCC12CCCCC1=Nc1ccccc12 (stereo not given)	99	39	80	-8	-2.0	i	0.85
CCCOC(=O)c1ccc(NC(=O)CC(C)(C)C)cc1	107	/	/	-5	/	i	0.92
Cc1cccc(NC(=O)CN2C(=O)N/C(=C/c3cc(C)n(C)c3C)C2=O)c1	93	83*	134*	-2	/	i	0.96
COc1cccc(NC(=O)Nc2cc(C)ccc2F)c1	97	/	/	-5	0.6	i	0.66
CCN(CC)c1nc2ccccc2nc1C(C#N)C(=O)NCCc1ccccc1 (stereo not given)	102	-25	179	-2	0.8	i	1
O=C(NC1CCCc2ccccc21)C1CCC(CNS(=O)(=O)c2cccc3nsnc23)CC1 (stereo not given)	102	/	/	-5	-2.6	i	1
CCCCCCCc1ccc(-c2ccc(O)cc2)nc1	108	/	/	3	/	i	0.77
COC(=O)CCC(=O)c1oc2ccccc2c1NC(=O)CCCN1C(=O)c2ccccc2C1=O	100	38	115	9	1.1	i	1.1
CC(C)Cc1nnc(NC(=O)CSc2nc(-c3ccccc3)cc(=O)[nH]2)s1	96	/	/	2	/	i	1.1
COc1ccc(/C=C2\CCCC3C2=NN(C(=O)c2scnc2C)C3c2ccc(OC)cc2)cc1 (stereo not given)	101	-10	99	6	1.7	i	0.81
COc1ccc(C(=O)NC2CCN(C(=S)Nc3cccc(C)c3)CC2)cc1	98	30	60	-8	-1.1	i	0.91
COc1ccccc1Nc1cc(C(=O)NCc2cccnc2)c2ccccc2n1	102	/	/	/	/	i	1.1
Cc1ccc(-n2nc3cc(C)c(NC(=S)NC(=O)/C=C/c4ccco4)cc3n2)cc1	95	23	81	-14	-0.4	i	1
CCCCOc1ccccc1NC(=O)CC1SC(=NCC)N(CC)C1=O (stereo not given)	105	-42	92	0	-2.2	i	0.9
COc1cccc(C=Nc2ccccc2C(=O)Nc2nccs2)c1OC	109	54	76	2	-0.3	i	0.66
O=C(Cn1nnc2c(cnn2-c2ccc(F)cc2)c1=O)OC1CCCCC1	97	/	/	0	-1.1	i	0.88
CCOC(=O)c1[nH]c2ccccc2c1NC(=O)CN1CCCCC1	98	-6	97	-6	-1.3	i	0.88
Continuation.
SMILES	RGS16-Gao	INS promoter inh	INS promoter inh cell count	PKD1 inh	GALR2 agonist	HSV augment	HSV augment primary fold
COc1ccc(-n2nc(C(=O)NCc3ccco3)c3c4ccccc4n(C)c3c2=O)cc1Cl	104	11	78	-4	-0.9	i	0.99
Cc1nc2ccccc2c(=O)n1NC(=O)C1CC1	110	/	/	-2	/	i	1.1
COc1ccc(Oc2nc(Oc3ccc(OC)cc3)nc(Oc3ccc(OC)cc3)n2)cc1	163	14	118	-3	0.1	i	1.2
COc1ccc(OC)c(NC(=O)c2nnn(Cc3ccc(Br)cc3F)c2N)c1	110	/	/	-1	-0.5	i	0.83
CCOc1ccccc1C(=O)Nc1cccc(-c2nnc(-c3ccccc3)o2)c1	100	-24	122	-3	-0.2	i	0.93
C/C=C/c1ccc(OCCn2cncn2)c(OC)c1	102	-6	109	-3	-1.9	i	0.52
Cc1cc(-c2csc(NC(=O)c3cccc(S(=O)(=O)N(C)C)c3)n2)c(C)n1-c1ccccc1	96	-13	154	-5	-0.8	i	1.2
CCc1cccc(CC)c1NC(=S)NCCc1c(C)[nH]c2ccccc12	105	12	116	-6	-0.5	/	/
CC(C)[C@@H](C(=O)NCC1CCC(C(=O)O)CC1)n1nnc2ccccc2c1=O (stereo not given in full)	103	/	/	-12	1.1	i	0.81
O=C(Nc1cc(C(F)(F)F)ccc1F)C1CCCC1	141	-34	62	-3	-1.3	i	1.1
C=CCn1c(=N)n(CC(O)c2ccco2)c2ccccc21 (stereo not given)	98	18	82	-1	-1.7	?	/
COC(=O)N/N=C/c1ccc(OC(=O)c2ccco2)c(OC)c1	104	/	/	/	/	i	1
O=C(N/N=C/c1cn[nH]c1-c1ccc(F)cc1)c1ccncc1	106	0	102	4	-0.8	i	0.92
O=C(CSc1nnc(-c2ccc(F)cc2)o1)N1CCN(C(=O)c2ccco2)CC1	101	-19	82	-5	-0.7	i	0.89
O=C(CCN1C(=O)c2cccc3cccc(c23)C1=O)N1CCN(Cc2ccc3c(c2)OCO3)CC1	90	/	/	-5	0.4	i	0.87
Cc1ccc(NC(=O)Nc2ccc3c(c2)C(=O)OC3)cc1Cl	102	/	/	/	/	i	0.97
Nc1ccc(C(=O)OCC(=O)N2CCOCC2)cc1[N+](=O)[O-]	104	/	/	1	0.2	i	0.93
COc1cccc(CC2(CO)CCCN(Cc3c(C)cc(C)cc3-n3cccn3)C2)c1 (stereo not given)	100	/	/	-2	/	i	0.92
CCOC(=O)c1ccc(OCC(=O)c2ccc(O)cc2O)cc1	94	9	91	-8	-1.9	i	0.82
Cc1[nH]c2ccccc2c1C(=O)COC(=O)C1CCC(=O)N1 (stereo not given)	95	-42	146	-1	-2.4	i	0.96
Cc1cc(/C=N/NC(=O)c2cccc(F)c2)c(C)n1-c1ccccc1	105	17	115	-6	/	i	0.8
C=CCNC(=S)N/N=C/c1cccc([N+](=O)[O-])c1	102	-13	111	-2	/	i	0.87
O=C(NCc1n[nH]c(=S)n1-c1cccc(Cl)c1)c1cccs1	102	15	104	13	/	i	1.1
Cn1cnnc1Sc1nc2ccccc2nc1NS(=O)(=O)c1ccccc1	107	/	/	-9	-1.8	i	1.1
COc1ccc(C(=O)NCC(=O)OCC(=O)NCc2cccs2)cc1	101	-25	168	0	/	i	0.97
(further entries)
SMILES	RGS16-Gao	INS promoter inh	INS promoter inh cell count	PKD1 inh	GALR2 agonist	HSV augment	HSV augment primary fold
O=C(Cn1nc(CNc2ccc(Br)cc2)[n+]2c1CCCCC2)c1ccc([N+](=O)[O-])cc1	103	/	/	/	/	i	0.99
O=C(CN1C(=O)CCC1=O)Nc1nc(-c2ccc(Cl)s2)cs1	105	28	101	-2	-0.9	i	0.97
CC(=O)Nc1ccc(NC(=O)Cn2ccc([N+](=O)[O-])n2)cc1	103	/	/	-5	/	i	0.85
COC(c1ccccc1)c1nnc(CCC(=O)N2CCN(Cc3cccs3)CC2)o1 (stereo not given)	83	/	/	4	/	i	0.95
CCC(CO)NCc1ccc(Br)cc1 (stereo not given)	99	/	/	0	/	i	0.95
CC(OC(=O)CN(C)S(=O)(=O)c1ccc(Cl)cc1)C(=O)Nc1cccc(Cl)c1 (stereo not given)	102	-7	104	7	-1.8	i	0.78
Cc1ccc(N2CCN(CCc3nc4cc(NC(=O)c5ccco5)ccc4n3C)CC2)cc1	104	/	/	-15	-0.5	i	0.85
Cc1cccc(NC(=S)NCC(c2cccnc2)N(C)C)c1C (stereo not given)	101	-32	130	11	-1.1	i	0.9
Cc1nc2cc3ccccc3cc2n1C	102	-7	84	5	-2.3	i	0.93
CCOC(=O)c1c(C)c(C(=O)NCCc2ccccc2)c(C)n1C	126	42	42	-2	/	i	1.1
COc1ccc(-c2ccc(OC)c([C@H]3[C@H]4C=CC[C@@H](C)[C@@H]4C(=O)N3Cc3ccccc3)c2)cc1OC	101	/	/	/	/	i	1.1
Cc1cc(C(=O)CSc2nnc(Nc3ccccc3F)s2)c(C)n1CC1CCCO1 (stereo not given)	101	/	/	9	-1.3	i	0.96
COc1ccc(-c2cc(-c3cc(C)ccc3O)[nH]n2)cc1	100	/	/	1	/	i	0.71

Pulled by compound from the list above (7):
SMILES	RGS16-Gao	INS promoter inh	INS promoter inh cell count	PKD1 inh	GALR2 agonist	HSV augment	HSV augment primary fold
Cc1ccc(N2CCN(CCc3nc4cc(NC(=O)c5ccco5)ccc4n3C)CC2)cc1	104	/	/	-15	-0.5	i	0.85
O=C(CN1C(=O)CCC1=O)Nc1nc(-c2ccc(Cl)s2)cs1	105	28	101	-2	-0.9	i	0.97
Cc1nc2cc3ccccc3cc2n1C	102	-7	84	5	-2.3	i	0.93
COc1ccc(-c2cc(-c3cc(C)ccc3O)[nH]n2)cc1	100	/	/	1	/	i	0.71
CC(=O)Nc1ccc(NC(=O)Cn2ccc([N+](=O)[O-])n2)cc1	103	/	/	-5	/	i	0.85
O=C(Cn1nc(CNc2ccc(Br)cc2)[n+]2c1CCCCC2)c1ccc([N+](=O)[O-])cc1	103	/	/	/	/	i	0.99
Cc1cc(C(=O)CSc2nnc(Nc3ccccc3F)s2)c(C)n1CC1CCCO1 (stereo not given)	101	/	/	9	-1.3	i	0.96
